Screening results as filed in PubChem BioAssay.
S aureus helic – blocks Staphylococcus aureus DNA helicase; inhibition, %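 (tested at about 80 µM)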; hit rate 0.05% among 120,000; purified S. aureus helicase, fluorescence unwinding assay; about half of the hits fall short of the stated cut;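 active = both duplicates at 50% or more, or one of them with a favoured structure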;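 also: 0% = mean of negative control wells and 100% = mean of positive control wells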
MgrA DNA FP – modulators of Staphylococcus aureus MgrA DNA binding. fluorescence polarization. inhibition, %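 (about 10 µg/mL by stock and volumes)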. hit rate 0.13% among 84,000;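 active = above 50% in either of two replicates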;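 also: 0% = protein plus DNA without compound and 100% = DNA alone without protein; higher means less MgrA bound to DNA so lower polarization; one replicate is shown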
* = called active by the depositor; x = no result given. This is a subset, so the mix of outcomes need not match the whole.

SMILES	MgrA DNA FP	S aureus helic
CCOc1ccccc1C(=O)N(c1ccccc1)C1C=CS(=O)(=O)C1 (stereo unspecified)	-0.3	-5
COc1ccc(-n2cc(-c3ccccc3)nc2SCC(=O)c2ccccc2)cc1	1.7	2
CC(=O)Nc1cc2cc(NC(=O)C(F)(F)F)ccc2oc1=O	-1.9	x
COC(=O)Nc1ccc(SCC(=O)c2ccccc2)cc1	x	2
O=C(NCCn1ccc2ccccc21)C1CCCC1	x	-14
Clc1ccc2nc(CSc3nc4ccccc4o3)cn2c1	-1.0	x
O=C1CCS(=O)(=O)c2ccc(F)cc21	-0.7	x
O=C(NCc1cccs1)C(Cc1ccccc1)n1cccc1 (stereo unspecified)	x	0
COc1cccc(C(=O)NCCNc2nc3cc(C)cc(C)c3cc2C#N)c1	-2.2	4
O=C1C=CC(=O)C(Nc2ccccc2)=C1	45	0
CC(C)(C)NC(=O)CSc1nc2ccccc2nc1SCC(=O)NC(C)(C)C	-1.6	7
CCOC(=O)c1ccc2nc(C(F)(F)F)nc(NCCCN3CCCC3=O)c2c1	x	-16
O/N=C(/CN1CCOCC1)c1ccccc1	2.5	x
Cc1ccc(-c2cc(=O)n(-c3nc(C)cc(C)n3)[nH]2)cc1	1.4	-5
Oc1ccc(Cl)cc1Cc1cc(Cl)ccc1O	-0.8	x
O=C(O)c1ccc(C2Nc3ccccc3C3C=CCC32)cc1 (stereo unspecified)	50	18
C=CCn1c(=S)sc2c(SCC(N)=O)ncnc21	0.0	12
Cc1cc(=O)[nH]c(SCc2ccc(C(=O)Nc3nccs3)cc2)n1	1.4	3
Cc1ccc2[nH]c(=O)c(CN3CCOCC3)c(-c3ccccc3)c2c1	3.3	-28
COC(=O)c1sc2ccccc2c1NC(=O)c1cc(Cl)sc1Cl	x	9
O=C(COc1ccccc1)Nc1ccccc1	2.4	10
Cc1n[nH]c(=O)c2noc(/C=C/c3ccc(C(F)(F)F)cc3)c12	x	2
O=C(/C=C/c1cc2c(cc1Br)OCO2)N1CCN(Cc2ccccc2)CC1	0.5	x
COc1ccc(C(=O)OCC(=O)NCc2ccc3c(c2)OCO3)cc1S(=O)(=O)N1CCOCC1	x	3
ONC=Nc1ccccc1Sc1nc2cc(Cl)ccc2s1	-1.9	x
Cc1cc(Cl)ccc1OC(C)C(=O)N=Nc1c(O)n(CO)c2ccccc12 (stereo unspecified)	x	3
Cc1cccc(C=Nc2ccc3[nH]ncc3c2)c1O	2.2	-4
CC(=O)Nc1ccc2c(c1)C1C=CCC1C(c1cccc(Cl)c1Cl)N2 (stereo unspecified)	3.2	-3
Cc1nn(-c2ccccc2)c(N)c1-c1ccccc1	-1.7	x
Cc1cccc(-c2cc(N)n(-c3ccccc3)n2)c1	x	11
N#CCN(CC#N)C(=O)C1c2ccccc2Oc2ccccc21	-0.1	19
COc1ccc(C(=O)N(CCCCN2C(=O)c3ccccc3C2=O)c2ccc(C)cc2)cc1	1.2	10
COc1ccc(-c2nn(C)c3sc(C(=O)NCCN4CCN(c5ccccc5F)CC4)cc23)cc1OC	x	-7
N#Cc1ccc(CSc2n[nH]c(=O)n2CCc2ccccc2)cc1	x	-11
CCOCc1[nH]c(=S)[nH]c(=O)c1Cc1ccc(OCC)cc1	3.2	3
COC(=O)CNC(=O)c1ccc(COC(C)=O)cc1	x	-7
Cc1ccc(O)c(N/C=C2/CCCC2=O)c1	-2.6	3
O=C(/C=C/c1ccc(Br)cc1)Nn1c(-c2cccc([N+](=O)[O-])c2)nc2ccccc2c1=O	1.8	x
CC1CCCC(C)N1C(=O)Cn1cc(/C=C2/C(=O)N(C)c3ccccc32)c2ccccc21 (stereo unspecified)	-1.7	5
O=c1[nH]c(-c2ccccc2)nnc1/C=C(\O)c1cccs1	-2.5	x
Cc1ccc(C)n1-n1cnc2scc(-c3ccc(F)cc3)c2c1=O	x	7
O=C(Nc1cccc(-c2nn3cnnc3s2)c1)c1cccnc1	-3.2	-4
COc1ccc(/C=N/c2nnc(SC)s2)c(O)c1	x	-25
OC(c1ccncc1)c1c[nH]c2ccccc12 (stereo unspecified)	3.6	x
N#Cc1cc2c(OCC(O)CN3CCN(C(c4ccccc4)c4ccccc4)CC3)cccc2[nH]1 (stereo unspecified)	-0.9	x
CC1=C(C#N)/C(=C/Nc2ccc(F)cc2)CC(=O)N1	9.1	x
CC1CS(=O)(=O)CCO1 (stereo unspecified)	x	19
COc1ccc(C2=NOC(C(=O)N(C)c3ccccc3)C2)cc1OC (stereo unspecified)	x	-1
CSc1ccc(S(=O)(=O)N2CCC(C(=O)N(C)C)CC2)cc1	3.8	6
CC12CCC(C/C1=N\N=C1/NC(=O)C(CC(=O)NC(N)=O)S1)C2(C)C (stereo unspecified)	x	-1
COc1cc(CO)cc(-c2cc(CO)cc(OC)c2OC)c1OC	x	0
CCOc1cccc(CO)c1OCc1ccccc1	x	-6
CCOc1ccc(N2C(=O)/C(=C/c3ccc(OCC(=O)OC)c(OC)c3)C(=O)NC2=S)cc1	6.8	x
CC1CC1C(=O)OCC(=O)c1ccc(Br)cc1 (stereo unspecified)	-6.8	6
CN1CCN(NC(=O)CN2C(=O)S/C(=C/c3ccc(Cl)cc3)C2=O)CC1	-0.2	-1
CC1(C)CC(=O)C2(CNC3=C(C2)C(=O)CC(C)(C)C3)C(=O)C1	x	24

Full records from above.
`CC1CC1C(=O)OCC(=O)c1ccc(Br)cc1` (stereo unspecified) is listed with MgrA DNA FP: -6.8; S aureus helic: 6
`CC12CCC(C/C1=N\N=C1/NC(=O)C(CC(=O)NC(N)=O)S1)C2(C)C` (stereo unspecified) is listed with MgrA DNA FP: x; S aureus helic: -1

(continued)
SMILES	MgrA DNA FP	S aureus helic
Cc1ccc2nc(NN)nc(-c3ccccc3)c2c1	0.9	-3
O=C(CCCN1C(=O)/C(=C\c2ccco2)SC1=S)Nc1ccc(Cl)cc1	x	-23
COc1cccc(C(=O)NCCCn2ccnc2)c1	x	-5
Cc1cc(Cl)ccc1OCC(=O)NCCOc1nc(N(C)C)nc(N2CCOCC2)n1	x	7
O=C(NC(C(=O)NC1=NCCS1)C12CC3CC(CC(C3)C1)C2)C1CCCCC1 (stereo unspecified)	-2.4	13
C=CCNC(=O)c1ccccc1NC(=O)CN1C(=O)c2cccc3cccc1c23	x	10
c1nc(N2CCC3(CC2)OCCO3)c2[nH]cnc2n1	1.8	-16
Cc1cc(C)n(CC(C)O)c(=O)c1C#N (stereo unspecified)	1.1	-12

Next section; it opens with the 3 that closed the last part.
SMILES	MgrA DNA FP	S aureus helic
C=CCNC(=O)c1ccccc1NC(=O)CN1C(=O)c2cccc3cccc1c23	x	10
c1nc(N2CCC3(CC2)OCCO3)c2[nH]cnc2n1	1.8	-16
Cc1cc(C)n(CC(C)O)c(=O)c1C#N (stereo unspecified)	1.1	-12
Cc1c2c(=O)n(-c3ccccc3)[nH]c2cc(=O)n1CCc1ccccc1	9.1	14
Clc1ccc2nnn(OCCOc3ccc(Br)cc3)c2c1	x	7
CCCCNC(=O)Cn1c(=O)cc(C)c2c(C)nn(-c3cccc(F)c3)c21	x	7
O=C(c1ccc2ncccc2c1)N1CCOCC1	-2.1	x
O=CNc1ncc(-c2nc3ccccc3[nH]2)s1	-0.6	18
O=C1CCCCC1Sc1nnc(Nc2ccccc2)s1 (stereo unspecified)	x	-3
COc1ccc(NC(=O)C2CCCN(S(=O)(=O)c3ccc(Br)s3)C2)cc1Cl (stereo unspecified)	-0.7	17
Nc1nc(N2CCCC2)ncc1S(=O)(=O)c1ccc(Cl)cc1	-0.6	x

The last six entries of the part above are carried over, then new ones follow.
SMILES	MgrA DNA FP	S aureus helic
CCCCNC(=O)Cn1c(=O)cc(C)c2c(C)nn(-c3cccc(F)c3)c21	x	7
O=C(c1ccc2ncccc2c1)N1CCOCC1	-2.1	x
O=CNc1ncc(-c2nc3ccccc3[nH]2)s1	-0.6	18
O=C1CCCCC1Sc1nnc(Nc2ccccc2)s1 (stereo unspecified)	x	-3
COc1ccc(NC(=O)C2CCCN(S(=O)(=O)c3ccc(Br)s3)C2)cc1Cl (stereo unspecified)	-0.7	17
Nc1nc(N2CCCC2)ncc1S(=O)(=O)c1ccc(Cl)cc1	-0.6	x
CCN(CC)CCNc1nc2ccc(Cl)cc2[nH]1	1.1	-26
CC(=O)Nc1ccccc1C(=O)OCc1nnc(-c2ccccc2)o1	0.6	0
CC(C)(C)C(=O)C(Cc1ccc(C#N)cc1)C(=O)C(C)(C)C	x	5
Nc1ncnc2c1ncn2C1CCCO1 (stereo unspecified)	0.6	x
COc1ccc(NC(=O)NC2c3ccccc3Oc3ccccc32)cc1OC	-1.1	-1
COc1ccc(CC2CC(=O)N(c3ccc(C)cc3)C2=O)cc1 (stereo unspecified)	x	22
COC(=O)c1[nH]c2ccccc2c1S(=O)c1ccccc1 (stereo unspecified)	x	34
O=C(NCCCN1CCCC1=O)C1CCCN(C(=O)N2CCOc3ccccc32)C1 (stereo unspecified)	x	10
CCCC(=O)N(c1ccc(C)c(Cl)c1)C1C=CS(=O)(=O)C1 (stereo unspecified)	x	-4
CSc1nnc(NC(=O)C(C)C)s1	x	13
O=C(CCSc1cccs1)Nc1ccc(Cl)cc1	1.7	x
CC(C)Oc1ccc(CNC2CCOC(C)(C)C2)cc1 (stereo unspecified)	-1.5	7
O=C(Nc1c2c(nn1-c1cccc(Cl)c1)CS(=O)C2)c1cccc(C(F)(F)F)c1 (stereo unspecified)	x	12
Cc1ccc(-c2ccc(CCC(=O)O)n2-c2ccccc2C(F)(F)F)cc1	-0.4	4
CC(C)CCOc1ccc(/C=N/n2cnnc2)cc1	0.1	0
CC(C)C(C)NC(=O)COc1ccccc1C(N)=O (stereo unspecified)	x	-9
CCN(Cc1ccccc1)S(=O)(=O)c1ccc2[nH]c(=O)ccc2c1	-0.4	3
CCc1ccc(NC(=O)CN2C=NS(=O)(=O)c3ccccc32)cc1	x	5
CSc1ccccc1NC(=O)C(C)OC(=O)c1nn(-c2ccccc2)nc1C (stereo unspecified)	x	-6
O=C(CSc1nc2c(c(C(F)(F)F)n1)CCc1ccccc1-2)NCc1ccco1	x	-22
N=C1c2ccccc2CN1NC(=O)CSc1nc2ccccc2[nH]1	x	3
C#CC(O)(c1ccccc1)c1ccccc1	x	-17
CCc1nnc(NC(=O)c2ccc(S(=O)(=O)N(C)c3ccccc3)cc2)o1	3.3	10
Cn1nc(SCC(=O)n2c3c(c4ccccc42)CCCC3)sc1=S	1.4	0
O=C(Nc1nn(Cc2c(F)cccc2Cl)cc1Br)C1CCCO1 (stereo unspecified)	-0.2	19
COc1ccc(C(=O)NCC(N)=O)cc1	-0.6	x
S=c1nc(NC2CCCCC2)cn[nH]1	x	-16
CCOC(=O)C1=C(C)NC(C)=C(C(=O)OCC)C1	-0.3	31
CC(=O)Nc1ccc2c(c1)CCCC2=O	-0.3	x
COc1ccc(CCn2c(=S)[nH]c3cc(C(=O)N4CCOCC4)ccc3c2=O)cc1OC	x	6
O=C(Nc1ccc(N=Cc2ccco2)cc1)c1ccccc1O	-0.6	x
CCN(CC)S(=O)(=O)c1cccc(C2=N/C(=C\c3c(C)nn(-c4ccccc4)c3N3CCCC3)C(=O)O2)c1	x	-212
CC(C)Oc1ccccc1Oc1ccc(N)cn1	-0.9	x
CCN(c1ncnc2c1cnn2-c1cccc(Cl)c1)C1CCCCC1	x	8
Cc1ccc2cc(C(=O)O)c(C)nc2c1	x	-6
CC(C)C1NC(=O)c2c(sc3c2CCCC3)N1 (stereo unspecified)	3.1	0
O=C(Cc1ccc(Br)cc1)Nc1nccs1	-1.2	3
COc1ccc2[nH]c(C(=O)N3CCCN(C(=O)c4cccs4)CC3)cc2c1	-0.1	x
CCOC(=O)c1c(NC(=O)Cn2cnc([N+](=O)[O-])n2)sc2c1CCCC2	-1.0	x
C=CCN=c1scc(-c2ccco2)n1/N=C/c1cccs1	x	-2
CN=C1c2c(C)c3cc(OC)ccc3n2CCN1C	-3.1	12
O=C(CSc1ccccc1)Nc1cccc(O)c1	-0.5	8
CCC(C)NC(=O)c1ccccc1-c1nc2ccccc2[nH]1 (stereo unspecified)	x	-8
O=C(c1ccco1)N(C(=O)c1ccco1)c1c(Cl)cc(Cl)c2cccnc12	x	2
Cc1nn(-c2ccccc2)c2sc(C(=O)N3CCN(C)CC3)cc12	x	-1
COc1ccc(C)cc1NC(=O)c1cc2ccccc2o1	x	20
CC(C)c1cc(NC(=O)COC(=O)c2ccccc2SCC(=O)N2CCCC2)on1	x	-6
Cc1cccc(C(=O)Nc2nc3c(s2)C(=O)CC(C)(C)C3)c1	1.6	-5
CCOC(=O)c1cc(-c2csc(-c3ccc(C(F)(F)F)cc3)n2)on1	x	0
O=C(O)CCn1cnc2ccccc21	x	-32
COc1ccc2c(c1)OC(c1ccccc1)(C(F)(F)F)NC2=O (stereo unspecified)	-0.2	-1
O=C(CN1CCOCC1)n1c2ccccc2c2ccccc21	-0.2	23
CCc1ccc(NCN2C(=O)C3=C(CCCC3)C2=O)cc1	x	-4
O=C(c1cc(C(F)(F)F)cc(C(F)(F)F)c1)c1ccccc1C(=O)N1CCOCC1	-0.9	x
CN(C)C(=O)c1cn(-c2ccccc2)c(=O)c2ccccc12	-1.1	x
